# Bfl-1 A1 inh = caspase 3/7 activation in MEF A1-2A-BIM cells, primary screen, A1 inhibitor project, cell-based, luminescence, HTS | Caspase-Glo 3/7 luminescence, 3 h; percent of clofoctol response, vehicle zero | AID 2462, 2010 | caspase activation, % (test concentration not listed) | 330,000 tested, 0.066% active;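 active means over half of replicate activation scores above 10%, or exactly half above 10 with the replicate mean above 10; inconclusive means replicate mean below 10 yet half the replicates above 10; inactive means over half of replicates below 10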;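 further: wells of about 30 µL received 50 nL stock; many hits fall short of the cut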
# Vif A3G = inhibitors of Vif binding to APOBEC3G peptide, primary screen, biochemical, TR-FRET, GST-Vif 1-94, biotin-A3G peptide, dose response retest (AID 1117319); TR-FRET GST-Vif / biotin-A3G peptide binding; higher % means a stronger effect; test concentration not given here; strong numbers were not always called active; inhibition, %, or IC50 in µM where a hit was titrated; 260,000 tested, 0.57% active;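 active means above the screen mean plus three standard deviations and confirmed in dose response; inconclusive means results disagree or hit not tested in dose response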;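 further: Vif residues 1-94 fused to GST binding biotinylated APOBEC3G peptide 110-148; 0% = full assay without inhibitor and 100% = GST in place of GST-Vif; retest series ran down from 100 µM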
# LANA-H2A inh = blockers of LANA interaction with H2A/H2B – biochemical, FP readout, HTS, primary screen | Protein LANA1 (Human herpesvirus 8 type P (isolate GK18)), Q9QR71 | cell-free LANA-H2A/H2B peptide, fluorescence polarization | inhibition, % (test concentration not listed) | 320,000 tested, 0.6% active | AID 2629, 2010; in the data active means inhibition mostly above about 10%, no sharp cut-off; inactive means mostly below about 6.7%;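 further: stock transfer was 7.5 nL into about 10 µL; 0% = median of vehicle wells and 100% = median of positive control wells; one replicate is shown; the record names a cut of 25% in any replicate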
# Target sequence (Q9QR71 whole entry, looked up): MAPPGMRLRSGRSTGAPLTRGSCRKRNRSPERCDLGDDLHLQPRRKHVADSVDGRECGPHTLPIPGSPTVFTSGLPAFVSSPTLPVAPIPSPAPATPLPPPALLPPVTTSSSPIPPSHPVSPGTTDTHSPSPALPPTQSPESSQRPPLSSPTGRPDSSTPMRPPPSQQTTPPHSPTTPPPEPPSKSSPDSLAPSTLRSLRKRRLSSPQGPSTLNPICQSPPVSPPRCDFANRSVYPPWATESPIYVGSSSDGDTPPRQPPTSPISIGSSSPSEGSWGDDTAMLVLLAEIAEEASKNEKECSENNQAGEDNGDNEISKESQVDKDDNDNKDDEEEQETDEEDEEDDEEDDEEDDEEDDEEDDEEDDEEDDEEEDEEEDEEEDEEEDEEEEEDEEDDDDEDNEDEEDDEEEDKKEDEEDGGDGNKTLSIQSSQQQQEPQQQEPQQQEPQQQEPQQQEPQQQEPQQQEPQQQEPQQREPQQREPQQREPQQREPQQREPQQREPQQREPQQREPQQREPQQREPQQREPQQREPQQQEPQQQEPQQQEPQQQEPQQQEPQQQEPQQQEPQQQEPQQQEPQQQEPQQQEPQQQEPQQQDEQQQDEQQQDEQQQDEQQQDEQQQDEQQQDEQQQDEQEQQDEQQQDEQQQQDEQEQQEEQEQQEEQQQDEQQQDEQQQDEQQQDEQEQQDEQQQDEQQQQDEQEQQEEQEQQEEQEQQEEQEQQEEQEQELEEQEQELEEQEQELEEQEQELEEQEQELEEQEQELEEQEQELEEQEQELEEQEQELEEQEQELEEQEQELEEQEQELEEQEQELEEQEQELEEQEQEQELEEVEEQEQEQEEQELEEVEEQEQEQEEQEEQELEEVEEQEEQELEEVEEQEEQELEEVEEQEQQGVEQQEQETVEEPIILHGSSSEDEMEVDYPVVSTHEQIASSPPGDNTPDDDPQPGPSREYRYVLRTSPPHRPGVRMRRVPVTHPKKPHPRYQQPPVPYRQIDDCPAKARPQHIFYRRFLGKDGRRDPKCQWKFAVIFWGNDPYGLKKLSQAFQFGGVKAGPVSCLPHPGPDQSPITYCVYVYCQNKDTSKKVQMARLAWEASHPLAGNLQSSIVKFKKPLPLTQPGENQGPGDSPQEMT
# Calb FLC = C. albicans growth inhibition with fluconazole, primary screen, CaCi-2 strain, Alamar Blue fluorescence. C. albicans CaCi-2 (fluconazole-resistant clinical isolate) + fluconazole, 48 h. growth inhibition, % (test concentration not listed). 300,000 tested, 0.57% active. AID 1979, 2009;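 active means most replicates above 75%; inconclusive means exactly half above 75%; inactive means most below 75%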;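 further: all wells also contain fluconazole at 8 µg/ml as a sub-toxic cotreatment; 0% = median of DMSO wells and 100% = median of geldanamycin control wells; wells of about 8 µL received 7.5 nL stock; the first replicate is given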
# Beta apoptosis = inhibitors of cytokine-induced beta cell apoptosis, primary screen, luminescence; protection from apoptosis, % (no concentration beside the values); INS-1E cytokine-induced death, ATP luminescence, 48 h; percent of positive-control rescue, neutral wells zero; 300,000 tested, 0.8% active;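 active means all replicates at 75% or more, or half of them and the mean; inconclusive means half reach 75% but not the mean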;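 further: 0% = cytokine-treated negative control wells and 100% = positive control rescue; higher means more ATP so stronger rescue from cytokine killing; wells of about 40 µL received 100 nL stock; the first replicate is given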
# MLL AF4-AF9 inh = inhibitors of AF4 peptide binding to AF9, primary screen, biochemical, AlphaScreen, biotin-AF4 peptide, FLAG-AF9, single point; inhibition, % at 10 µM; 350,000 tested, 0.47% active; AID 651704, 2012;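 active means every replicate reaching a set inhibition limit, whatever the replicate mean, cut at about 25% in these data; inconclusive means mean inhibition reaches that limit but some replicates miss it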;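 further: 0% = plate neutral control median and 100% = total signal loss; the record names both 10 and 1 µM as test concentration; the first replicate is given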
# RanGTP-Imp inh = inhibitors of RanGTP-importin-beta interaction, primary screen, biochemical, FRET, CFP-Ran, YFP-importin-beta, homogeneous. Ran GTPase (GTP-bound) - importin-beta complex. cell-free CFP-Ran/YFP-importin-beta FRET ratio. inhibition, % (concentration not given with the values). 300,000 tested, 1.1% active. AID 2216, 2009;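 active means most replicates above 15%; inconclusive means exactly half above 15%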;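 further: 0% = DMSO wells and 100% = Ran loaded with GDP instead of GTP; wells of about 40 µL received 100 nL stock; the first replicate is given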
# T cruzi inh = inhibitors of intracellular T. cruzi growth, primary screen, luminescence, NIH3T3 host cells. AID 1885, 2009. inhibition, % (no concentration beside the values). 300,000 tested, 1.4% active. T. cruzi beta-gal in NIH3T3, 90 h;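 active means mean inhibition across valid replicates above about 55%, limit read from the data; inconclusive means mean below that limit but half or more replicates reach it; inactive means mean below it, under half of replicates reach it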;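 further: signal also drops with host cell toxicity which is not excluded here; 0% = plate median of DMSO wells and 100% = zero luminescence signal; higher percent means less beta-gal luminescence so fewer parasites; stock transfer was 50 nL into about 50 µL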
# * = called active by the depositor; ? = inconclusive; / = not tested or not shown; & = joins results of further samples.
molecule	Bfl-1 A1 inh	Vif A3G	LANA-H2A inh	Calb FLC	Beta apoptosis	MLL AF4-AF9 inh	RanGTP-Imp inh	T cruzi inh
C=CCn1c(CSc2nc3ccccc3s2)nnc1SCC(=O)NCc1ccco1	-0.9	5%&-2%	-4.4	-9	0	/	1.2	-6
COc1cccc(C(CC(=O)Nc2cccc3ccccc23)NC(=O)c2ccccc2)c1 (stereo not given)	-0.5	-2%	1.9	3	6	/	-2.1	-8
COc1cc(OC)c(OC)cc1CN1CCCC(C(=O)c2ccc3c(c2)OCO3)C1 (stereo not given)	0.7	/	-2.6	/	-8	0.1	/	36
Fc1cccc(CCN2CCN=C2Nc2ccccc2)c1	0.9	/	-1.6	/	0	-0.4	/	/
NC(=O)c1ccsc1N	0.0	27%	2.6	-14	-8	/	/	-3
COc1ccc(OC)c(NC(=O)CSc2nc(=O)n(Cc3ccccn3)c3c2CCC3)c1	-1.0	1%	2.1	-2	-6	-2.2	-3.9	4
Cc1ccc(-n2ncc3c(=O)[nH]c(SCC(=O)N4CCN(c5ccccc5)CC4)nc32)cc1	0.9	9%	-4.4	14	/	/	-2.0	19
COc1ccc(CCC(=O)Nc2ccc3c(c2)OCCO3)cc1	0.1	1%	1.8	-10	5	/	4.7	-5
CCOc1ccc(NC(=O)CNS(=O)(=O)c2c(C)cc(C)cc2C)cc1	0.1	/	2.9	-3	4	-1.8	1.2	11
CCN(CC(=O)Nc1cc(Cl)ccc1C)C(=O)CSCc1c(C)noc1C	0.0	1%	4.1	-2	0	-0.1	-4.4	-2
CCN(CC)S(=O)(=O)c1ccc2c(c1)N(CC(=O)N1CCCC1)C(=O)CO2	0.6	4%	-2.2	-4	-1	12	-7.2	18
CCn1c(Cn2nnc(-c3ccccc3)n2)nnc1SCC(=O)N1CCOCC1	-1.6	4%	3.1	-11	-6	/	0.3	-13
CCOC(=O)c1c(NC(=O)CC)sc(C(=O)N2CCCCC2)c1C	-0.1	13%	2.8	2	5	/	6.8	6
CC(=O)Nc1cccc2c1C(=O)N(c1cccc(OC(C)=O)c1)C2=O	-0.5	16%	-1.2	-4	-10	-2.4	0.3	-9
Cc1nc(C(=O)O)sc1C1(C)CC(c2cccc([N+](=O)[O-])c2)=NO1 (stereo not given)	-1.0	/	-4.4	4	3	1.9	12	-7
N#CCC(=O)N1CCCCCC1	-1.2	-1%	0.0	-4	-5	-28	-2.8	-15
C/C=C/c1ccc(OCCN2CCc3ccccc3C2)c(OC)c1	-0.1	-12%	-2.8	?	-10	10	3.2	21
C/C(=N\Nc1ccccc1C(=O)O)c1ccncc1	-4.0	/	3.2	-26	4	-1.4	-3.1	18
O=C1C(=O)N(CCCc2ccccc2)c2ccccc21	0.8	/	-1.7	-3	5	/	2.8	20
COc1ccc(-c2cc(C(=O)NN)n(-c3ccccc3)n2)cc1	0.0	?	-0.8	4	-8	2.8	-3.2	7
O=C(Nc1ccc(S(=O)(=O)NCc2ccco2)cc1)c1cccc(F)c1	-1.4	8%	-4.6	-2	-8	0.3	5.2	-11
COc1ccccc1N1CCN(C2CCCN(S(=O)(=O)c3ccc(C)cc3)C2)CC1 (stereo not given)	/	/	/	-15	/	-6.2	-0.4	13
CSc1ccc(C(=O)/C=C/c2ccc(N)cc2)cc1	-2.9	/	-0.7	5	1	/	-9.9	0
Cc1cc(C)c[n+](CC(=O)c2ccc(NC(=O)c3ccccc3)cc2)c1	0.3	-3%	2.8	11	-1	1.0	4.8	-5
CCc1cc(-c2ccc3c(c2)COc2c4ccccc4nn2-3)on1	-8.8	/	7.7	6	9	/	2.6	10
COc1ccc(C(=O)Nc2ccc3nc(N4CCOCC4)sc3c2)cc1OC	0.9	-6%	-1.7	/	-14	-1.2	/	/
O=C(Nc1ccccc1)c1cnc2ccccc2n1	-6.3	/	-3.4	-24	-7	/	1.2	-25
COc1ccc(S(=O)(=O)N/N=C\c2ccc3c(c2)OCO3)c(OC)c1	0.1	4%	-1.4	-4	-3	-2.1	?	-14
Cc1cc(C)c(C)c(S(=O)(=O)N2CCCCC2C(=O)O)c1C (stereo not given)	-0.5	7%	-2.5	16	-6	-2.3	-1.3	-12
O=C(CCCNC(=O)c1ccc(Cl)cc1)Nc1ccc(F)c(S(=O)(=O)N2CCOCC2)c1	2.0	-2%	-3.7	/	-1	1.1	/	/
COc1ccc2c(c1)c(=O)oc1c(C)c(OCc3cc(C(=O)O)oc3C)ccc12	-2.9	?	-0.8	-4	2	-3.9	-2.4	-15
CCN(C(=O)c1ccco1)c1nc(-c2ccc(OC)cc2)cs1	-0.1	/	-1.2	-1	5	-0.6	0.7	8
c1ccc2sc(N3CCN(Cc4nnnn4CC4CCCO4)CC3)nc2c1 (stereo not given)	0.4	?	-2.2	19	-1	/	3.1	1
O=C(NCCCn1ccnc1)/C(=C/c1ccco1)NC(=O)c1cccs1	0.2	-5%	-4.6	-18	0	-0.6	1.5	-8
Cc1cc(=O)oc2cc(NC(=O)c3ccc(OC(F)F)cc3)ccc12	-2.4	/	4.0	-17	9	-2.8	-0.7	-9
CC(=O)c1cc2c(cc1NC(=O)Nc1cccc(Cl)c1)OCCO2	-1.0	3%	2.3	-14	-2	/	?	5
NS(=O)(=O)c1ccc(N=Nc2ccc(O)c3ncccc23)cc1	-0.4	/	3.9	79*	121*	7.8	-5.2	66*
CC1CCN(CC(=O)Nc2ccc(C(=O)N3CCCCC3)cc2)CC1	-0.4	/	0.5	-3	-7	3.0	1.5	-10
CC(=O)Nc1ccc2c(COC(=O)CC3Sc4ccccc4NC3=O)cc(=O)oc2c1 (stereo not given)	-1.2	-2%	-6.7	3	-2	-3.8	2.4	-3
CCNC(=O)C(=O)NCC1CCCN1S(=O)(=O)c1cccs1 (stereo not given)	0.9	2%	-0.7	-4	-3	-0.3	2.6	-5
CCOC(=O)c1sc(-c2ccc(OC)cc2)cc1NC(C)=O	/	-19%	/	-5	/	/	-3.7	-3
Cc1ccc(/C=N/NC(=O)c2ccc(-n3cnnn3)cc2)cc1	-0.7	-1%	1.2	/	3	1.6	/	/
O=S(=O)(Nc1ccc(Nc2ccccc2)cc1)c1ccc(F)cc1	0.5	/	6.7	2	/	/	3.8	13
COc1ccc(OC)c(NC(=O)CSc2ncccc2C(=O)O)c1	1.2	?	-3.4	6	/	/	0.7	-9
COc1ccc(C)cc1NC(=O)c1ccccc1NS(=O)(=O)c1cccc2cccnc12	-0.2	/	-1.2	-5	-1	/	0.2	-31
Cc1ccc(N(CC(=O)NCC2CCCO2)C(=O)CCC(=O)Nc2cc(C)on2)cc1 (stereo not given)	-0.2	/	1.3	2	1	1.7	-1.8	-12
C/C=C/Cn1cccc(C(=O)Nc2ccc(OC)cc2)c1=O	-7.6	-2%	3.0	-25	4	-3.3	-1.6	8
O=C(c1ccc(S(=O)(=O)Cc2ccccc2F)c([N+](=O)[O-])c1)N1CCCCCC1	0.5	11%	2.4	11	-15	6.5	-0.4	3
CC1CN(C(=O)C2CC2)C(C)CN1C(=O)C1CC1 (stereo not given)	-0.1	-1%	4.8	-3	-8	-3.1	-0.4	-16
CC(C)COC(=O)N(C)c1ccc(C(O)(C(F)(F)F)C(F)(F)F)cc1	0.0	-6%	-0.4	5	/	/	-1.6	2
O=C(c1ccccc1)N(Cc1cccs1)C1CCS(=O)(=O)C1 (stereo not given)	0.1	4%	1.0	36	-3	-3.2	9.1	4
COc1cccc(-c2ccc(SCC(=O)NCCc3ccccc3)nn2)c1	-1.6	4%	3.5	-5	3	-0.6	-0.2	-1
CC(C)(C)c1cc(CN2CCCC(O)C2)c(O)c(C(C)(C)C)c1 (stereo not given)	-0.9	8%	-4.1	-19	-2	/	-3.4	-5
OC(c1nc2ccccc2[nH]1)C(O)C(O)C(O)c1nc2ccccc2[nH]1 (stereo not given)	0.2	8%	1.4	-4	0	/	2.3	-7
CCN1CNC(=S)N(CCc2ccccc2)C1	-0.1	75%	-0.5	-3	-1	-2.4	3.3	-12
O=[N+]([O-])c1ccc(CSc2nc3ccccc3o2)cc1	-3.9	-1%	-9.1	-12	-8	/	8.3	4

# The results go on.
molecule	Bfl-1 A1 inh	Vif A3G	LANA-H2A inh	Calb FLC	Beta apoptosis	MLL AF4-AF9 inh	RanGTP-Imp inh	T cruzi inh
O=C(NC1CCc2ccccc21)C12CN(Cc3ccccc3)CC1C(c1cccc([N+](=O)[O-])c1)=NO2 (stereo not given)	-0.8	5%	3.1	13	12	2.6	-2.5	41
Cc1ccc(C(=O)O/N=C(\N)Cc2ccc([N+](=O)[O-])cc2)c(Cl)c1	0.7	-2%	-5.4	4	-4	-3.3	0.2	17
CCOC(=O)c1sc(NC(=O)CN2C(=O)NC3(CCCCCCC3)C2=O)c(C(=O)OCC)c1C	-0.1	/	-1.2	11	6	0.4	1.7	28
Cc1ccc(C2C3=C(CCCC3=O)N=C3c4ccccc4C(=O)C32)cc1 (stereo not given)	0.6	-4%	8.5	-9	-3	8.7	1.1	0
C=CCN(C(=O)CNC(=O)c1ccco1)C(C(=O)NC1CCCCC1)c1ccc(OC)cc1 (stereo not given)	-1.9	-1%	-4.7	0	3	/	0.4	-13
CC(C)(C)CC(=O)Nc1ccc(C(N)=O)cc1	0.4	2%	0.0	-3	2	/	3.8	-10
COc1ccccc1/C=N/N1C(=O)c2cccc3cccc(c23)C1=O	0.7	25%	2.7	?	2	-0.1	-0.4	-16
CCOC(=O)c1c(NC(=O)COc2cccc3c2CCN(C)C3=O)sc2c1CCC2	-0.8	-10%	0.1	3	25	3.7	2.4	18
COCCNc1nc(SCC(=O)N2CCN(c3ccccc3)CC2)nc2ccccc12	-0.1	3%	2.6	4	/	/	6.7	25
Cc1c(C)c2ccc(OCC(=O)Nc3cccnc3)cc2oc1=O	-0.6	/	-1.6	5	-2	1.2	2.6	-2
C/C(=N\NC(=S)NC(C)C)c1ccc(-n2ccnc2)cc1	-0.7	-9%	-1.9	0	2	/	-0.6	-35
COc1ccc(CC(=O)NNC(=S)Nc2ccccc2)cc1Br	-0.1	5%	-1.6	32	2	/	-2.2	25
Cc1ccccc1CNC(=O)C1CCN(c2nnc(N3CCCC3=O)s2)CC1	0.4	/	4.8	2	-2	3.3	-1.5	-14
CCOC(=O)/C(C#N)=C\c1cc(C)n(-c2ccccc2)c1C	-0.4	12%	11	21	-4	/	?	4
CC(C)c1ccc(N2C(=NC(=O)C3CCCO3)SC3CS(=O)(=O)CC32)cc1 (stereo not given)	-0.6	/	-1.4	0	-3	-1.1	-1.8	10
O=C(CSc1nnc(CNC(=O)c2ccco2)o1)Nc1ccc(Br)cc1	-0.2	/	0.2	-4	-6	-11	0.6	4
CC(C)Cn1ccc(=O)n(CC(C)C)c1=O	-0.1	/	6.6	10	-3	/	1.7	-14
CCCSc1nc(C)c(CC(=O)O)c(=O)[nH]1	1.7	-3%	0.9	-4	-2	/	3.1	-15

# Screening results deposited in PubChem by several laboratories.
